Source: PubChem BioAssay
D2 PAM = Beta-Arrestin HTS for Positive Allosteric Modulators of the Human D2 Dopamine Receptor: Potentiators; DiscoveRx D2 beta-arrestin cells, luminescence, 90 min; 100% = 57 uM dopamine signal; actives 0.23% (n = 360,000); potentiation, % (concentration not given with the values); AID 624464, 2012; D(2) dopamine receptor (Homo sapiens), P14416; active = potentiation of 50% or more; inconclusive = 30% to 50%; inactive = 30% or less;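 note: compound concentration not given in the record; tested on top of an EC20 dose of dopamine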
Target sequence (P14416 whole entry, looked up): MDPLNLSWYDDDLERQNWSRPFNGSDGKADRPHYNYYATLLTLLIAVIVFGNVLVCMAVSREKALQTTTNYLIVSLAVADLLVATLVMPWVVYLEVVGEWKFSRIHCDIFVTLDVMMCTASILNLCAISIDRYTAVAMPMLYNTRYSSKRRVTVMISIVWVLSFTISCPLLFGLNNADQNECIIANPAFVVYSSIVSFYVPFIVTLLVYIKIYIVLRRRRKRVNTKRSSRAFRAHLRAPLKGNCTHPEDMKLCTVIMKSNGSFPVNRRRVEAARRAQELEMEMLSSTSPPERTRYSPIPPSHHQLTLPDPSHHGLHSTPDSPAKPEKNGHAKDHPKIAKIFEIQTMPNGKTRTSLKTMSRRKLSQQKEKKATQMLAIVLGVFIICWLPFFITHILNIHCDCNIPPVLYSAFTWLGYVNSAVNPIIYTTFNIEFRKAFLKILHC
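PathHunter D2 cells, attached overnight at 37 deg C, received compound in DMSO plus dopamine at EC20 (50 nM final) for 90 min at 37 deg C. Beta-arrestin recruitment was read as luminescence after 1 h with detection reagent at ambient temperature.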
Six1-Eya2 blk = qHTS Assay for Inhibitors of the Six1/Eya2 Interaction. Homeobox protein SIX1 (Homo sapiens) + Protein phosphatase EYA2 (Homo sapiens), …. AlphaScreen GST-Six1/His-Eya2 binding, biochemical; hits give low values; control for the full effect not named in the record. activity change, % (concentration not given with the values). actives 0.56% (n = 360,000); in the data active = activity change below about -65%; inconclusive = about -30% to -65%; inactive = above about -30%; note: % is set by controls: 0 for no effect and ±100 for the full control effect
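Six1/Eya2 binding was read as AlphaScreen signal after compounds were pinned into GST-Six1 plus His-tagged Eya2 (5X stock 250/500 nM) in pH 8.0 Tris/NaCl/TCEP buffer, beads added, then incubated 1 h, 37 C, dark.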
TRPML1 blocker = qHTS for Inhibitors of the Human Mucolipin Transient Receptor Potential 1 (TRPML1) | Mucolipin-1 (Homo sapiens), Q9GZU1 | TRPML1-inducible cells, Ca2+ dye fluorescence, FDSS; hits give low values; inhibition of EC80 agonist-evoked calcium signal | activity change, negative = inhibition, % (test concentration not listed) | actives 0.02% (n = 390,000) | AID 624415, 2012; in the data active means activity change below about -50%; inconclusive means about -30% to -50%; inactive means above about -30%;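 note: stimulus is agonist 54-4 at its EC80 concentration; % is set by controls: 0 for no effect and ±100 for the full control effect; compound concentration not given in the record; the text of the record puts the active cut at -80%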
Target sequence (Q9GZU1 whole entry, looked up): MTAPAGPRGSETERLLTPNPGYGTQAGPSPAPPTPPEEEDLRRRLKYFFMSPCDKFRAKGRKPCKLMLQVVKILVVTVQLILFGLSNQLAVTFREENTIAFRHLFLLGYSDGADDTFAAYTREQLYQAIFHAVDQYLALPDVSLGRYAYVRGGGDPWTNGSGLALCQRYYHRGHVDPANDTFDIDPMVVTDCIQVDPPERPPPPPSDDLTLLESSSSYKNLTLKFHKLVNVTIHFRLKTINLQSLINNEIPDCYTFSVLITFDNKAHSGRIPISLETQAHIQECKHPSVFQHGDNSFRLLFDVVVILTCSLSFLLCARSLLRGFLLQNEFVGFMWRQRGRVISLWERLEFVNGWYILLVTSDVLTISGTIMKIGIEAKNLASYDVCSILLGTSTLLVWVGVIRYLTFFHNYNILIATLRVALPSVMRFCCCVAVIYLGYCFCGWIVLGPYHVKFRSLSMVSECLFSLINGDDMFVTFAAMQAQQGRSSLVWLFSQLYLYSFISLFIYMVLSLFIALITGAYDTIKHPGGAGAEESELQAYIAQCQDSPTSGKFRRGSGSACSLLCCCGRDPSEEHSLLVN
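Tet-induced TRPML1-DL cells loaded with Ca8 no-wash calcium dye were read kinetically on FDSS. Compound addition was followed by EC80 agonist 54-4 (4 uM final); inhibition was read over 110 s.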
TRPML1 ag = qHTS for Agonists of the Human Mucolipin Transient Receptor Potential 1 (TRPML1). Mucolipin-1 (Homo sapiens), Q9GZU1. TRPML1-expressing cells, Ca2+ dye fluorescence, FDSS; host cell line not named in the record; reference of the full effect not given here. activation, % (test concentration not listed). actives 0.12% (n = 410,000). AID 624414, 2012; in the data active = activation above about 50%; inconclusive = about 30% to 50%; inactive = below about 30%; note: 0% is about no effect; the text of the record puts the active cut at 80%
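TRPML1-DL cells, Tet-induced overnight (~16 h, 37 degrees C), loaded 45-90 min at room temperature with Ca8 no-wash calcium dye plus quencher. FDSS fluorescence: 10 s baseline, compound pin-transfer, 110 s agonist read, then EC80 54-4 (4uM final) and 110 s antagonist read.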
D2 ag = Beta-Arrestin HTS for Positive Allosteric Modulators of the Human D2 Dopamine Receptor: Agonists | D(2) dopamine receptor (Homo sapiens), P14416 | DiscoveRx PathHunter D2 beta-arrestin, luminescence, 90 min; 100% = 57 uM dopamine signal | activation, % (test concentration not listed) | actives 0.084% (n = 360,000) | AID 624465, 2012; in the data active = activation above about 40%; inconclusive = about 15% to 40%; inactive = below about 15%; note: compound concentration not given in the record; the text of the record calls up to 30% inactive
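Agonist mode: compounds alone added to overnight-plated D2 PathHunter cells for 90 min at 37 C, with 57 uM final dopamine (EC100) defining full response. Beta-arrestin recruitment detected by chemiluminescent reagent, read after 1 h at ambient temperature.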
PINK1 expr mod = A Quantitative High throughput Screen to Identify Chemical Modulators of PINK1 Expression; PINK1 immunofluorescence, high-content cytometry, 24 h; Potency, µM (titrated, usually from 76.6 µM), inactives show at the highest dose activation (PINK1 increase), hits mostly activators; actives 0.2% (n = 410,000); active = well fitted activation curve with a large enough effect; inconclusive = small, poorly fitted or top-dose-only effect; inactive = flat fitted curve, though single readings scatter; cell line not stated here;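 note: potency is the fitted concentration of half-maximal effect; % of control where 0% means no effect; nearly all actives have a fitted effect of over 65% in size; a mitochondrial uncoupler was the plate control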
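PINK1 protein level read as immunofluorescence by microplate cytometer in a fixed, stained stable cell line after 24 h exposure to five compound concentrations, with CCCP as control.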
* marks the source's active call; other numbers are inactive results; ? = inconclusive; nt = no result given; [ ] = another dose, or the depositor's remark.

SMILES	D2 PAM	Six1-Eya2 blk	TRPML1 blocker	TRPML1 ag	D2 ag	PINK1 expr mod
N#CC1=C2SCN(Cc3ccco3)CN2C(=O)CC1c1cccc2ccccc12 (stereo unspecified)	5	-6	-7	0.6	-0.5	-2.2%
O=C(OCn1nnc2ccccc2c1=O)C1COc2ccccc2O1 (stereo unspecified)	6	-7	-15	-0.5	-1.0	9.3%[38.3 µM]
C=C(C)CN(CC)C(=O)CSc1nc(O)cc(=O)n1C1CCCC1	5	2	7	1.1	1.0	0.6%
Cc1ccc(NC(=O)CCn2cccn2)c(C)c1	nt	nt	-4	0.7	nt	-0.3%
O=C(NCc1cc(Br)cc(Br)c1OC(=O)c1ccccc1[N+](=O)[O-])c1ccccc1	24	-72*	4	-0.3	2.1	?
O=C(CN(Cc1ccccc1)C(=O)c1ccc2c(c1)OCCO2)NCc1ccc2c(c1)OCO2	10	1	-19	-1.2	-3.7	1.0%
COc1ccc(Cc2nc(C(=O)Nc3ccccc3)cs2)cc1	-6	12	5	4.2	3.3	-1.9%
CC1CCN(S(=O)(=O)c2ccc3c(c2)CCN3)CC1	nt	nt	2	0.5	nt	0.5%
COc1cc(OC)cc(C(=O)NCc2n[nH]c(=S)n2-c2ccccc2)c1	-16	0	39	0.8	-3.4	0.1%[38.3 µM]
COc1ccc(Cl)cc1-c1cc(C(=O)NCc2cc(C(F)(F)F)cc(C(F)(F)F)c2)[nH]n1	-7	5	nt	0.1	4.0	2.7%
CCC1Sc2ccc(S(=O)(=O)CCC(=O)Nc3cccc(Br)c3)cc2NC1=O (stereo unspecified)	7	-4	22	1.2	6.5	0.2%
Cc1ccc(C(=O)OCC(=O)c2ccc(CC(=O)N3CCOCC3)s2)cc1C	0	-9	6	-0.2	-1.3	1.7%
CC[C@]12c3[nH]c4ccc(OC)cc4c3CCN1C(=O)C(CC(=O)NCCCn1ccnc1)C[C@@H]2C(=O)N1CCN(C(=O)C2CC2)CC1 (stereo partly specified)	-2	1	6	-0.6	-2.1	0.2%
CCOc1cccc(CN2CCC(CCC(=O)NC3CC3)CC2)c1O	-25	0	-8	-0.9	-2.8	0.4%
O=C(Nc1nc(-c2ccccc2)c(C(=O)c2ccccc2)s1)c1ccc(S(=O)(=O)N2CCCCC2)cc1	1	11	5	0.3	-2.0	?
O=[N+]([O-])c1ccc(O)c(C=Nc2ccc3c(c2)OCO3)c1	-2	-5	-5	0.9	-7.5	0.9%
CC1(C)CC(NC(=O)COc2cc3oc(=O)c4c(c3cc2Cl)CCC4)CC(C)(C)N1	-6	-14	-1	-0.4	-3.9	0.7%
O=C(/C=C/c1ccco1)NCCCN1CCOCC1	-2	10	10	0.0	-3.9	1.7%
CC(C)(C)OC(=O)N1CCC(CC2CC(c3ccccc3)=NO2)(C(=O)NCc2ccccc2)CC1 (stereo unspecified)	-11	0	-12	-0.1	-3.8	0.1%
Nc1nc(N)nc(-c2ccc(Cl)cc2)n1	-7	3	11	0.7	-0.5	nt
COC(=O)c1cc(NC(=O)c2cc3sccc3n2Cc2ccc(Cl)cc2)cc(C(=O)OC)c1	nt	nt	17	0.7	nt	1.4%
CCOC(=O)N1CCN(C(=O)CCNS(=O)(=O)c2ccc(C)c(C)c2)CC1	0	3	21	1.9	2.3	-4.2%
COc1ccc(S(=O)(=O)N2CCOc3ccccc32)cc1	-9	-10	-23	5.0	8.2	-0.2%
CCc1ccc(NC(=O)C2CCN(c3cc(C)nc4c(-c5ccc(Cl)cc5)c(C)nn34)CC2)cc1	nt	nt	0	-0.6	nt	0.4%
COc1ccc(CCNC(=O)CNS(=O)(=O)c2cccs2)cc1OC	-4	0	-9	0.4	-2.4	5.3%[38.3 µM]
COc1cc(/C=N/NC(=O)c2ccncc2)ccc1OCC(=O)Nc1ccccc1	7	-24	-2	0.3	3.9	0.1%
CCn1c(O)c(/C=C2\C=NN=C2c2ccccc2)sc1=S	-6	-25	-8	-0.2	-5.8	2.4%
Cc1ccccc1C1=Nn2c(nnc2-c2ccco2)SC1	-19	-4	5	-0.5	-4.9	0.6%
CCOc1ccc(-c2cc(C(=O)Nc3ccc4c(c3)OCCO4)c3ccccc3n2)cc1	-10	-7	6	-1.0	-2.5	3.0%
COc1ccc(Cn2c(CO)cnc2SCc2cccc(C)c2)cc1	nt	nt	27	3.2	nt	5.8%
Cc1cc(NS(=O)(=O)c2ccc(C3CCCCC3)cc2)no1	-2	5	-5	-0.1	-2.6	nt
C=CC[C@@H](Cc1ccc(F)cc1)C(=O)OC[C@H]1CCCN1C(=O)[C@@H](CC=C)CC(=O)N(CCO)Cc1ccccc1	nt	-3	0	-0.8	-1.2	7.7%
Cc1cc([N+](=O)[O-])nn1CC(=O)N1c2ccccc2CC1C (stereo unspecified)	-7	4	11	0.3	-0.2	-0.9%
COc1ccccc1-n1cnnc1SC(C)C(=O)Nc1cccc([N+](=O)[O-])c1 (stereo unspecified)	-18	-1	24	0.0	-0.7	1.0%
O=C(NCCN1CCN(Cc2ccccc2)CC1)c1ccc(CS(=O)(=O)c2c(Cl)cccc2Cl)o1	-24	4	4	-0.5	-0.9	0.2%
Cc1ccc(NC(=S)NNC(=O)CSc2nnc(-c3ccc(Cl)cc3)n2C2CCCCC2)cc1	-46	-2	-10	1.3	-6.2	0.8%
O=C(/C=C1\NC2(CCCC2)Cc2ccccc21)C(=O)N/N=C/c1ccccc1O	-23	-20	2	2.2	-12	-4.6%
Cc1cc(C)n2nc(C(=O)N3CCN(Cc4ccc5c(c4)OCO5)CC3)nc2n1	-13	-1	-7	-1.1	10	-0.1%
CCOC(=O)N1CCC(NC(=O)c2cc(COc3ccc(F)cc3Cl)on2)CC1	-7	-2	-16	1.1	-4.3	?
CCOc1ccccc1OCCCC(=O)NNC(=O)c1ccc(F)cc1	-7	-5	-4	-0.3	-3.7	-3.0%
Cc1cc(=O)n2nc(N3CCC(C(=O)NCCCOC(C)C)CC3)sc2n1	nt	nt	-7	-0.6	nt	1.1%
CC(NC(=O)NC(=O)c1cccc([N+](=O)[O-])c1)C1CC1 (stereo unspecified)	4	3	35	-0.3	-3.1	-1.0%
CC(CN1CCCC1)OC(=O)C(c1ccccc1)c1ccccc1 (stereo unspecified)	-2	2	-25	0.6	-6.5	2.7%
COc1ccc(NS(=O)(=O)c2ccc(N3CCOCC3)c(NC(=O)c3ccc(OC)cc3)c2)cc1	-5	-7	-13	0.8	-1.9	0.5%
CCOc1ccc(NS(=O)(=O)c2ccc(NC(=O)c3cccnc3)c(OC)c2)cc1	-2	-13	0	0.3	-1.8	0.0%
O=c1[nH]c(-c2ccccc2)ncc1OCc1ccccc1	-5	-9	16	1.3	0.5	1.1%
O=c1cc(CSc2nnc(Nc3ccccc3)s2)nc2sccn12	13	-9	-15	2.8	-1.1	-1.4%
CCOc1ccc(CN(C)CC(=O)Nc2ccc3c(c2)CCC3)cc1OC	-9	8	40	0.1	-0.6	-1.1%
CCCCN(C(C)=O)c1c(CC)nc2ccc(C(=O)NCCc3ccccn3)cn12	-14	11	47	-0.9	-4.8	-0.6%
Nc1cc2c(cc1C(=O)c1ccccc1F)OCCO2	1	-18	-10	1.7	-2.7	0.1%
CC1(C(=O)Nc2cccc(C#N)c2)CCN1C(=O)c1ccccc1CCc1ccccc1 (stereo unspecified)	-4	-1	nt	0.0	2.7	1.1%
O=C(Nc1ccc2c(c1)OCO2)C1CCCN(S(=O)(=O)Cc2ccccc2)C1 (stereo unspecified)	-9	-1	9	-1.2	-0.8	0.7%
O=C(CSc1nc2ccccc2[nH]1)Nc1ccccc1F	-12	-9	2	-0.1	-4.2	nt
COc1ccc(OCCn2c(C(C)Oc3ccccc3)nc3ccccc32)cc1 (stereo unspecified)	nt	nt	16	2.7	nt	-0.2%
CC(=O)Nc1nnc(CCS(=O)(=O)c2ccc(C)c(C)c2)s1	-10	9	-5	0.2	-5.2	1.5%
Cc1[nH]c2ccccc2c1C(=O)CN1CCN(c2ccc(Cl)cc2)CC1	-3	0	10	0.0	0.3	10%
COc1ccc(C(CNC(=O)CCNS(=O)(=O)c2ccc(Br)cc2)N2CCCC2)cc1 (stereo unspecified)	-37	-1	-8	1.4	-5.8	-1.0%
Cc1nnc(NC(=O)c2ccccc2F)s1	0	5	-4	0.4	-1.7	4.0%[38.3 µM]
CN(Cc1ccccc1)S(=O)(=O)c1csc(C(N)=O)c1	0	0	-8	0.0	6.3	0.8%
Cc1c(NC(=O)C(C)OC(=O)c2ccc(NC(=O)CC#N)cc2)c(=O)n(-c2ccccc2)n1C (stereo unspecified)	-22	2	2	-0.2	8.5	-3.6%
The listing continues.
SMILES	D2 PAM	Six1-Eya2 blk	TRPML1 blocker	TRPML1 ag	D2 ag	PINK1 expr mod
COc1ccc(-c2cn3c(n2)sc2cc(C(=O)NCc4cccs4)ccc23)cc1	nt	nt	36	0.1	nt	0.6%
CCCCCn1nc(C(=O)N(CCOC)c2c(N)n(CCCC)c(=O)[nH]c2=O)c2ccccc2c1=O	5	11	-10	-0.3	-1.8	-1.1%
COCC(C)NC(=O)CSc1nc2ccccc2c(=O)n1CCc1ccc(S(N)(=O)=O)cc1 (stereo unspecified)	?	-2	-23	1.1	-1.6	2.5%
CCOc1ccc(NC(=S)NCc2ccc3[nH]c(C)cc3c2)cc1	-14	-68*	20	0.3	0.3	0.9%
CCc1ccc(NC(=O)c2ccc(F)c(S(=O)(=O)NCc3ccc(Cl)c(Cl)c3)c2)cc1	nt	nt	50	3.6	nt	0.4%
COc1ccc(Cl)cc1S(=O)(=O)NC1CC(C)(C)NC(C)(C)C1	-1	7	3	-0.3	-3.4	0.5%
O=C(c1ccco1)N1C(=O)c2cccc3cccc1c23	-10	-7	9	-0.5	-2.5	-0.8%
Cc1ccc(OCC(=O)O/N=C(\N)c2ccncc2)cc1C	-2	13	14	1.0	-0.9	0.4%

A second format for part of the listing above.
Each structure is followed by: D2 PAM, Six1-Eya2 blk, TRPML1 blocker, TRPML1 ag, D2 ag, PINK1 expr mod
COc1ccc(-c2cn3c(n2)sc2cc(C(=O)NCc4cccs4)ccc23)cc1
 : nt, nt, 36, 0.1, nt, 0.6%
COCC(C)NC(=O)CSc1nc2ccccc2c(=O)n1CCc1ccc(S(N)(=O)=O)cc1 (stereo unspecified)
 : ?, -2, -23, 1.1, -1.6, 2.5%
CCc1ccc(NC(=O)c2ccc(F)c(S(=O)(=O)NCc3ccc(Cl)c(Cl)c3)c2)cc1
 : nt, nt, 50, 3.6, nt, 0.4%
COc1ccc(Cl)cc1S(=O)(=O)NC1CC(C)(C)NC(C)(C)C1
 : -1, 7, 3, -0.3, -3.4, 0.5%
Cc1ccc(OCC(=O)O/N=C(\N)c2ccncc2)cc1C
 : -2, 13, 14, 1.0, -0.9, 0.4%
